# Source: PubChem BioAssay (National Center for Advancing Translational Sciences (NCATS))
# GLA inh pH 4.5: qHTS Assay for Inhibitors of Human alpha-Galactosidase at pH 4.5; activity change, negative = inhibition, % at 105 µM; AID 1467, 2008; Alpha-galactosidase A (Homo sapiens), P06280; 230,000 tested, under 10 active; purified enzyme, 4-MU-alpha-Gal fluorescence, pH 4.5; inconclusive = small, poorly fitted or top-dose-only inhibition, or a rising curve; inactive = flat fitted curve, though single readings scatter; no compound was filed as active;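 also: 0% = full activity with enzyme and -100% = basal without enzyme; dose as in the result columns while the protocol names 77 µM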
# Target sequence (P06280 whole entry, looked up): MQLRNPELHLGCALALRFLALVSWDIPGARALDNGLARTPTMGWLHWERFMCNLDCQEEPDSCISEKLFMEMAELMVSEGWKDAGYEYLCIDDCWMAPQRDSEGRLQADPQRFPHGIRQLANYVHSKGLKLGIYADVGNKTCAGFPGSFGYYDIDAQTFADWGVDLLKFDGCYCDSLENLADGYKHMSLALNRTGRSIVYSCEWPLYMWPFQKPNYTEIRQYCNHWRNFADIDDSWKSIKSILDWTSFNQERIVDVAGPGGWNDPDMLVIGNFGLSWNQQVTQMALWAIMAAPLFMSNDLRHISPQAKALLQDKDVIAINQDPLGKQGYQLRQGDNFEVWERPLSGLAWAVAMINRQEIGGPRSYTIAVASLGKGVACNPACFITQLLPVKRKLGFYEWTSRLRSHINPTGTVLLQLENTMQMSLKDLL
# Rango complex inh: qHTS Assay for Inhibitors of Rango (Ran-regulated importin-beta cargo) - Importin beta complex formation | Importin subunit beta-1 (Homo sapiens), Q14974 | hit rate 0.031% among 340,000 | AID 540263, 2011 | Potency, µM (series often up to 92.2 µM), without a hit: at the top dose inhibition of complex formation | Rango CFP/YFP FRET sensor + importin beta, 45 min; active = rising FRET ratio curve, often small or poorly fitted; inconclusive = mostly compound fluorescence or quenching in the first reads; inactive = flat curves in all reads;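 also: potency is read from the fitted curve at half-maximal effect; 0% = DMSO wells and 100% = buffer wells lacking importin beta; nearly all actives have a fitted effect of over 15% in size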
#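 FRET biosensor (snurportin 1 IBB flanked by EYFP and cerulean), 50 nM, with compound 5 min, then 0.125 microM importin beta in PBS, 1 mM DTT, 0.02% Tween-20, 0.1% BSA. CFP/YFP ratio read after 45 min at room temperature; pre-read flags interference.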
# Rango dissoc inh: qHTS Assay for Inhibitors of RanGTP induced Rango (Ran-regulated importin-beta cargo) - Importin beta complex dissociation; Potency, µM (doses to about 46.1 µM), without a hit: at the highest dose activity change, negative = inhibition; hit rate 0.071% among 340,000; AID 540253, 2011; Snurportin-1 (Homo sapiens) + GTP-binding nuclear protein Ran (Homo sapiens) + Importin …; Biochemical FRET Rango-importin beta, RanGTP-induced dissociation; active means falling FRET ratio curve, often poorly fitted, with flat reads before Ran was added; inconclusive means other falling curves, or compound fluorescence or quenching; inactive means flat or rising ratio curve;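 also: potency is read from the fitted curve at half-maximal effect; % of control where 0% means no effect; nearly all actives have a fitted effect of over 45% in size; -100% = wells without RanGTP and RCC1; the record marks most hits as doubtful in a second field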
#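 Rango FRET biosensor (snurportin-1 IBB flanked by N-terminal EYFP and C-terminal CFP10) at 0.1 uM, with 0.25 uM importin beta in PBS, 1mM DTT, 0.02% Tween-20, 0.1% BSA. 0.6 uM Ran, 2mM GTP and 0.2 uM RCC1 were then added for 45 min at room temperature. Inhibition read as loss of FRET rise.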
# miR-21 FLuc: qHTS Assay for Modulators of miRNAs and/orActivators of miR-21; 340,000 tested, under 10 active; AID 2288, 2010; HeLa miR-21 FLuc reporter, luciferase, 48 h; Potency, µM (series often up to 38.3 µM), for inactives: at the highest dose reporter change, positive = more light; active = well fitted rising curve with a large enough effect; inconclusive = small, poorly fitted or top-dose-only effect; inactive = no such curve, though single readings can be large or run the other way;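 also: % of control where 0% means no effect; miR-21 action dims this reporter so a rising signal means less miR-21 action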
#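 HeLa miR-21-FLuc reporter line, endogenous miR-21; 2000 cells/well in DMEM/10% FBS; compound titration up to ~40uM final, 48 h, 37 degree Celsius; luciferase detection reagent, 15 min lysis, CCD luminescence.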
# The depositor's hits bear a star; u = inconclusive; x = not tested or not shown; & = joins results of further samples; [ ] = another dose, or the depositor's remark. A portion of the library. The share of hits here may be higher or lower than overall.
SMILES | GLA inh pH 4.5 | Rango complex inh | Rango dissoc inh | miR-21 FLuc
COC(=O)CCCC1=CC2=C(c3ccccc3)C(=O)C(C)(OC(=O)C3CCCC3)C(=O)C2=CN1CC(C)C (configuration not stated) | 15&-17 | u | -28% | 4%
CCCCOc1cccc(C2/C(=C(\O)c3ccc4c(c3)OCCO4)C(=O)C(=O)N2CCN2CCOCC2)c1 (configuration not stated) | x | 1.4% | -9% | 0%
CCCN(CC(=O)Nc1ccccc1C)C(=O)c1ccc(COc2ccccc2)cc1 | x | -0.8% | 8% | 13%
Nc1nc(CSc2nnnn2-c2ccc(Cl)cc2)nc(N2CCOCC2)n1 | 7 | 3.5% | -2% | -6%
COc1cccc(C(CC(=O)O)NS(=O)(=O)c2ccc3c(c2)N(C(C)=O)CC(C)O3)c1 (configuration not stated) | x | -2.6% | -9% | 1%
Cc1ccc(-c2csc(N/N=C/c3ccco3)n2)cc1 | -3 | 1.4% | -14% | -44%
COc1ccc(-n2c(N)cc(=O)nc2SCC(=O)N2CCN(c3ccccc3)CC2)cc1 | x | 1.9% | 7% | -3%
CC(=O)N1CCOc2ccc(S(=O)(=O)N3CCCC(C)C3)cc21 (configuration not stated) | x | -3.2% | 9% | 0%
COc1cc(N/N=C(\C)c2ccc(N)cc2)nc(-c2ccccc2)n1 | -2 | -0.8% | 1% | -5%
CCOc1cc2[nH]c(=S)n(CCN3CCC(C)CC3)c(=O)c2cc1OCC | -10 | -0.3% | -7% | -2%
COc1ccc(Cc2nnc(NC(=O)c3ccco3)s2)cc1 | -7 | -0.6% | -18% | -35%
COc1ccc(S(=O)(=O)NCc2cccnc2)cc1NC(=O)c1ccccc1 | x | -0.6% | 29% | 8%
O=C(CN1C(=O)C2CC=CCC2C1=O)N1CCN(c2ccc([N+](=O)[O-])cc2)CC1 (configuration not stated) | -12 | 1.2% | 1% | 24%
CC1=C(C(=O)OC(C)(C)C)C(c2ccc3ccccc3c2)NC(=O)N1C (configuration not stated) | x | -0.6% | 27% | 2%
CCN(C(=O)CSc1nnc(-c2ccc(OC)cc2)n1N)c1c(N)n(Cc2ccccc2)c(=O)[nH]c1=O | x | -5.3% | 10% | x
C/C(=N\NC(=O)CNc1ccc(F)cc1)c1cc2ccccc2o1 | 1 | 0.2% | 5% | -6%
COc1ccc(CC(=O)NNS(=O)(=O)c2ccc(F)cc2)cc1OC | 2 | -1.2% | -10% | 0%
COC(=O)c1ccc(N/N=C/c2cc([N+](=O)[O-])cc(OC)c2O)cc1 | -18 | 1.4% | 0% | -59%
CCOc1ccc(NC(=O)CSc2nnc(-c3ccccn3)n2C)cc1 | -3 | -2.0% | -3% | -2%
O=C(Nc1ccccc1)N(Cc1ccc(Cl)cc1)CC(O)C(F)(F)F (configuration not stated) | -8 | -5.8% | -7% | -1%
CCOc1ccc(NS(=O)(=O)c2ccc(C(=O)NCCN3CCOCC3)cc2)cc1 | x | -0.5% | 15% | x
CC1(C)NC(=O)N(CC(O)COc2cc3ccccc3cc2C(=O)N2CCCCC2)C1=O (configuration not stated) | 6 | -0.5% | -1% | -6%
Cc1ccc(OCC(=O)N2CCCCCCC2)cc1C | x | -0.1% | -1% | -33%
Cc1sc2ncnc(OCC(=O)N3CCN(C(=O)c4ccco4)CC3)c2c1C | 1 | 3.5% | -6% | -1%
O=C(CN(C(=O)CCC(=O)Nc1ccccn1)c1cccc(F)c1)NCc1ccc2c(c1)OCO2 | x | -0.9% | 0% | 7%
S=c1[nH]nc(Nc2ccc(Cl)cc2)s1 | 5 | -3.8% | 20% | -36%
CC(c1nnc(SCC(=O)c2c(N)n(C3CC3)c(=O)[nH]c2=O)n1-c1ccc(F)cc1)N(C)C (configuration not stated) | x | 4.8% | 1% | x
O=C(OCC(=O)N1CCCC1)c1c2c(nc3ccccc13)CCCCC2 | 6 | -0.7% | 11% | -12%
O=c1c(C=Nc2ccc(Cl)cc2)c[nH]n1-c1cccc(Cl)n1 | 5 | 5.8% | -2% | -3%
CCn1c(=O)c2c(nc3n2CCCN3Cc2ccccc2)n(C)c1=O | x | 1.9% | -8% | 1%
COc1ccccc1N1CCN(C(=O)CCS(=O)(=O)c2ccc3c(c2)NC(=O)C(C)S3)CC1 (configuration not stated) | x | 3.4% | 9% | 26%
O=C(Cn1cc(C(F)(F)F)ccc1=O)N/N=C/c1cccc(Cl)c1 | 5 | 0.7% | 1% | -2%
O=C(O)c1cccc(-n2cccc2/C=C2/SC(=O)N(CC(=O)N3CCCC3)C2=O)c1 | x | -3.3% | -14% | 1%
COc1ccc(/C=C/c2nc(N)nc(-c3ccccc3O)n2)cc1 | 2 | -2.3% | 14% | -24%
COCc1cc(=O)n2[nH]c(-c3ccc(C)cc3)cc2n1 | -4 | 0.0% | 19% | -39%
COc1cccc(CN(C)C(=O)c2ccc(OCC(=O)Nc3cccc(C(F)(F)F)c3)c(OC)c2)c1 | x | u | 11% | x
COc1ccc(N2CCN(C(c3cccs3)C(C)NS(=O)(=O)c3ccccc3)CC2)cc1 (configuration not stated) | -10 | 0.0% | -6% | 22%
CN(c1ccccc1C(=O)Nc1ccccc1-c1ccccc1)S(C)(=O)=O | x | 2.8% | -6% | -2%
Cc1ccc(C)c(OCC(=O)Nc2ccc3c(c2)OCO3)c1 | -2 | -4.2% | 8% | -29%
CCOC(=O)c1ccccc1NC(=O)CSc1nnc(COc2ccccc2C)n1C | -1 | -2.5% | 22% | -7%
CCN(Cc1ccccc1)C(=O)c1cccc(OC2CCN(C(=O)C3CC3)CC2)c1 | x | 5.3% | 5% | 23%
COc1cccc(Cn2cnc3c(NS(=O)(=O)c4ccc(Cl)cc4Cl)c(C)c(C)cc32)c1 | -5 | -0.1% | -4% | -2%
O=C(COc1ccc(-n2cnnn2)cc1)NC(=O)NCc1ccccc1 | 3 | -2.6% | 17% | -1%
O=C1Nc2cc(Cl)c(Cl)cc2N(O)N1c1cc(Cl)cc(Cl)c1 | 1 | 0.7% | 35% | -6%
N#Cc1nc(COc2ccc(F)cc2)oc1N1CCCCC1 | 5 | -1.7% | 4% | -38%
Cc1cc2c(cc1S(=O)(=O)NCC(C)c1ccccc1)n(C)c(=O)c(=O)n2C (configuration not stated) | x | -1.1% | -15% | 4%
Cc1cccc(-c2noc(CNC(=O)COc3ccccc3C)n2)c1 | x | 0.1% | 7% | 0%
C/C(CCc1ccc2c(c1)OCO2)=N\N=C1\NC(=O)CC(C(=O)Nc2ccc(C(=O)O)cc2)S1 (configuration not stated) | x | 0.1% | -6% | x
O=C(Cn1ccc(NC(=O)OCc2ccccc2)nc1=O)NCc1ccc2[nH]ccc2c1 | x | -1.7% | -3% | x
CS(=O)(=O)c1ccc(C(=O)OCc2nnc(-c3ccc(Cl)cc3)o2)cc1[N+](=O)[O-] | 1 | 4.7% | -14% | 8%

# Reformatted: two of the compounds above
GLA inh pH 4.5,Rango complex inh,Rango dissoc inh,miR-21 FLuc,SMILES
x,2.8%,-6%,-2%,CN(c1ccccc1C(=O)Nc1ccccc1-c1ccccc1)S(C)(=O)=O
-2,-4.2%,8%,-29%,Cc1ccc(C)c(OCC(=O)Nc2ccc3c(c2)OCO3)c1

# Next structures follow.
SMILES | GLA inh pH 4.5 | Rango complex inh | Rango dissoc inh | miR-21 FLuc
COc1ccc(S(=O)(=O)N2CCOCC2)cc1NC(=O)Cn1nnc2ccccc2c1=O | -3 | 2.9% | -14% | -4%
O=C(CSc1nnc2ccccn12)NC(=O)NC1CCCC1 | -6 | -2.1% | -1% | 0%
CCn1cc(C(=O)NC2CCCCCC2)c2cc(OC)c(OC)cc2c1=O | -1 | -0.7% | -5% | -4%
CSc1nsc(SCC(=O)Nc2ccc(C(=O)O)cc2)n1 | x | -2.1% | 10% | -3%
CC[C@@]1(C(=O)OC)N[C@H](CN(C)C(=O)Nc2ccc(C)cc2)[C@@H]2C(=O)N(C)C(=O)[C@@H]21 | x | u | 0% | x
S=C(NCc1ccco1)NCc1ccco1 | x | -3.9% | -5% | x
CCC(C)NC(=O)C1CCN(S(=O)(=O)N2CCOCC2)CC1 (configuration not stated) | -2[21.1 µM] | 1.3% | 21% | 0%
Cc1ccc(NC(=O)NC(=O)CN2CCC(C(N)=O)CC2)c(C)c1 | x | 7.0% | 10% | x
C/C(=N\O)c1ccc2c(c1)CC(C)O2 (configuration not stated) | -2 | 0.6% | 3% | -30%
COc1ccccc1-c1ccc(SCc2ccc(F)cc2)nn1 | -15 | 0.8% | 1% | -36%
CCCC1S/C(=N/N=C/c2ccc(C)cc2)N(Cc2ccc(OC)cc2)C1=O (configuration not stated) | 8 | 4.2% | 5% | -4%
CC12C(=O)N(c3ccc(OC(=O)c4ccco4)cc3)C(=O)C1C1c3ccccc3C2c2ccccc21 (configuration not stated) | -7 | -4.0% | 0% | -3%
Cc1ccc(N(CC(=O)N2CCN(C3CCCCC3)CC2)S(=O)(=O)c2cccnc2)cc1 | 8 | -1.6% | -2% | -7%
Cc1nc(N)nc(C)c1Cc1ccccc1 | -7 | 1.1% | 7% | -16%
CC(C)CCNC(=O)C1CCN(S(=O)(=O)c2ccc(-n3cnnn3)cc2)CC1 | x | 1.2% | -6% | 1%
CCN(CC)C(=O)C1CCCN(Cc2ccccc2F)C1 (configuration not stated) | 4 | 5.6% | 1% | -1%
CCS(=O)(=O)N1CCC(c2nc3ccccc3[nH]2)CC1 | x | -0.6% | -13% | -3%
Oc1ccccc1C1Nc2cccc3cccc(c23)N1 | -3 | u | 38% | -4%
O=C(CNC(=O)c1ccccc1)NCc1ccc(Cl)cc1 | -4 | 0.0% | 15% | -2%
Cc1cc(C)n2nc(SCc3nnc(SCc4ccccc4)s3)nc2n1 | -8 | -0.7% | 1% | -12%
O=C(Nc1ccc2c(c1)C(=O)N(CC1CCCO1)C2=O)c1ccc(Cl)c(Cl)c1 (configuration not stated) | 6 | -1.9% | -12% | -1%
CCC(C)NC(=O)CSC1=Nc2ccccc2C2=NC(c3ccccc3)C(=O)N12 (configuration not stated) | 6 | 0.9% | -3% | -3%
OCCC1CN(Cc2cnc(-c3ccccc3)s2)CCN1Cc1ccccc1 (configuration not stated) | 1 | 0.6% | 10% | 11%
CN(C)CCNc1nc2sc3c(c2c(=O)n1-c1ccc(F)cc1)CCCCC3 | -11 | -0.6% | -6% | -30%
N#Cc1nc(-c2ccccc2F)oc1N1CCCCC1 | x | 0.8% | -2% | -35%
CC1CCCN(c2nc3ccccc3nc2C(C#N)C(=O)OC2CCCCC2)C1 (configuration not stated) | 4 | x | x | 0%
CCOC(=O)COn1c(=O)c(-c2ccc(Br)cc2)[n+]([O-])c2ccccc21 | x | -2.5% | 3% | -11%
Cc1ccc(NC(=O)CNC(=O)c2cccs2)cc1S(=O)(=O)Nc1ccc(Cl)cc1 | 2 | -4.2% | 9% | -2%
COc1ccc(C(=O)Nc2cc(C)nn2-c2cccc(F)c2)cc1OC | x | -2.2% | -12% | -7%
Oc1ccccc1N1CCN(c2ncnc3scc(-c4ccccc4)c23)CC1 | x | -2.3% | 12% | 19%
Cc1cc(C(=O)NNS(=O)(=O)c2cccc(Cl)c2)nn1C(C)(C)C | 4 | -3.1% | 3% | -10%
CCCCN1C(=O)C2C(c3ccc(OC)cc3O)NC(CC(C)C)(C(=O)O)C2C1=O (configuration not stated) | 3 | 5.4% | -12% | 0%
COCCn1c(C)cc(/C=N/NC(=O)c2cccnc2)c1C | -7 | 3.3% | 3% | -15%
O=C(NCCc1ccccc1)C(=O)NCCC1CCCCN1S(=O)(=O)c1ccccc1 (configuration not stated) | x | -0.1% | 3% | x
CN(C(=O)c1ccccn1)c1nnc(-c2cccnc2)s1 | 0 | 1.9% | u | -3%
